Source: PubChem BioAssay
PK Bst – Pyruvate Kinase; partly purified Bacillus stearothermophilus pyruvate kinase, luminescence ATP production; ribose 5-phosphate activator present at AC10; Potency, µM; 51,000 compounds, 1.2% hits; AID 361, 2006; in the data active means potency below about 11 µM; inconclusive means mostly about 12 µM to 25 µM; inactive means weaker than that;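 the screen sought inhibitors and activators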;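 note: potency is the fitted concentration of half-maximal effect; scaled between full activation by ribose 5 phosphate and full inhibition by luteolin; about four in five hits inhibit and the cells do not say which; series up to 57 µM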
TsaE inh – qHTS Assay for Inhibitors of YjeE; tRNA threonylcarbamoyladenosine biosynthesis protein TsaE (Escherichia coli (strain …; purified YjeE, fluorescence polarisation of a bound ADP probe; Potency, µM; 71,000 compounds, 0.05% hits; active = well fitted falling curve; inconclusive = weaker or top-dose-only fall, or a rising curve; inactive = flat or poorly fitted curve;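 note: top concentration of the series not given in the record; excess ADP was the control for the full effect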
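Fluorescence polarization of a BODIPY Texas Red–ADP probe (2 uM) bound to purified YjeE (10 uM) was read after 15 min room-temperature incubation with compounds. Loss of polarization marks inhibitors; ADP serves as titrated control.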
* = called active by the depositor. Some of the compounds tested (hit frequency here may not be typical).

Start of the listing, in advance, 4 compounds:
What do the screens show for `Cc1c(NC(=O)c2ccc(CN3CCc4ccccc4C3)cc2)c(=O)n(-c2ccccc2)n1C`?
TsaE inh: inactive

How did O=C(Nc1ccc(Cl)cc1)N1CCCC1 do in these assays?
PK Bst: >57; TsaE inh: inactive

What do the screens show for `COc1ccc(OC)c(S(=O)(=O)NCCc2ccccc2)c1`?
PK Bst: >57; TsaE inh: inactive

Results for CCCn1c(CNc2ccc(Br)cc2)nc2ccccc21 ?
TsaE inh: inactive

Results (from the top)
What do the screens show for `Cc1c(NC(=O)c2ccc(CN3CCc4ccccc4C3)cc2)c(=O)n(-c2ccccc2)n1C`?
TsaE inh: inactive

How did O=C(Nc1ccc(Cl)cc1)N1CCCC1 do in these assays?
PK Bst: >57; TsaE inh: inactive

What do the screens show for `COc1ccc(OC)c(S(=O)(=O)NCCc2ccccc2)c1`?
PK Bst: >57; TsaE inh: inactive

Results for CCCn1c(CNc2ccc(Br)cc2)nc2ccccc21 ?
TsaE inh: inactive

Results for CC(NC(=O)NCCCC(=O)O)(C(F)(F)F)C(F)(F)F ?
PK Bst: >26

Results for COc1cc(OC)cc(C(=O)NCC(=O)N2CCC(C)CC2)c1 ?
PK Bst: >57; TsaE inh: inactive

How did COc1cccc(C2C(C#N)=C(N)Oc3c2oc(CO)cc3=O)c1OC (stereo not drawn) do in these assays?
PK Bst: >57; TsaE inh: inactive

Results for Cc1onc(-c2ccccc2)c1C(=O)OCC(=O)c1ccccc1 ?
PK Bst: >57; TsaE inh: inactive

Results for Cc1ccc(-c2nnn(CC(=O)Nc3cccc4cccnc34)n2)o1 ?
TsaE inh: inactive

What do the screens show for `Cc1ccc(S(=O)(=O)N2CCCC2C(=O)Nc2cc(C)on2)cc1` (stereo not drawn)?
PK Bst: inconclusive; TsaE inh: inactive

Results for CC(C)Cc1cc(C(=O)NCCN2CCOCC2)no1 ?
TsaE inh: inactive

How did O=C(Nc1ccccc1Cl)c1cccs1 do in these assays?
PK Bst: >57; TsaE inh: inactive

The final two records of the part above come first, to join the parts:
Results for CC(C)Cc1cc(C(=O)NCCN2CCOCC2)no1 ?
TsaE inh: inactive

How did O=C(Nc1ccccc1Cl)c1cccs1 do in these assays?
PK Bst: >57; TsaE inh: inactive

How did Cc1nc2oc(C(=O)c3ccccc3)c(N)c2c2c1COC(C)(C)C2 do in these assays?
PK Bst: >57; TsaE inh: inactive

Results for CCC(c1nnnn1CCOC)N(Cc1ccc(C)cc1)Cc1cc2cc(OC)ccc2[nH]c1=O (stereo not drawn) ?
PK Bst: >57; TsaE inh: inactive

What do the screens show for `CCOC(=O)C1CCN(Cc2c(O)ccc3ccccc23)CC1`?
PK Bst: >57; TsaE inh: inactive

Results for CC(=O)C=NCC(=O)O ?
TsaE inh: inactive

Results for CCOCCCn1c(C)nc2c(c1=O)c1nc3ccccc3nc1n2-c1ccc(C)cc1 ?
PK Bst: >57; TsaE inh: inactive

How did CN(C)S(=O)(=O)N1CCN(c2cccc(Cl)c2)CC1 do in these assays?
TsaE inh: inactive

How did COc1cccc2cc(C(=O)N3CCN(c4ccccc4F)CC3)c(=O)oc12 do in these assays?
PK Bst: >57; TsaE inh: inactive

Results for Cn1c(Cc2cccs2)nnc1SCC(=O)N1CCc2ccccc21 ?
PK Bst: >57; TsaE inh: inactive

What do the screens show for `CCOc1ccc(C(C)NC(=O)CCC(=O)O)cc1` (stereo not drawn)?
TsaE inh: inactive

What do the screens show for `Cc1cc(NS(=O)(=O)c2ccc(C3CCCCC3)cc2)no1`?
PK Bst: >57; TsaE inh: inactive

How did S=c1nc[nH]c2c1ncn2Cc1ccco1 do in these assays?
TsaE inh: inactive

What do the screens show for `CC(C)(C)c1ccc(-c2nnc(SCCC#N)n2C2CCCC2)cc1`?
PK Bst: >57; TsaE inh: inactive

5 neighbouring compounds out of the list so far, for reference:
How did Cc1nc2oc(C(=O)c3ccccc3)c(N)c2c2c1COC(C)(C)C2 do in these assays?
PK Bst: >57; TsaE inh: inactive

Results for CCC(c1nnnn1CCOC)N(Cc1ccc(C)cc1)Cc1cc2cc(OC)ccc2[nH]c1=O (stereo not drawn) ?
PK Bst: >57; TsaE inh: inactive

What do the screens show for `CCOC(=O)C1CCN(Cc2c(O)ccc3ccccc23)CC1`?
PK Bst: >57; TsaE inh: inactive

Results for CC(=O)C=NCC(=O)O ?
TsaE inh: inactive

Results for CCOCCCn1c(C)nc2c(c1=O)c1nc3ccccc3nc1n2-c1ccc(C)cc1 ?
PK Bst: >57; TsaE inh: inactive

(further entries)
How did O=C(c1cccc(S(=O)(=O)N2CCOCC2)c1)N1CCOCC1 do in these assays?
TsaE inh: inactive

Results for CCCN1C(=O)C(NS(=O)(=O)c2ccc(N)cc2)(C(F)(F)F)C(C(=O)OC)=C1C (stereo not drawn) ?
PK Bst: >57; TsaE inh: inactive

Results for CN1CCc2c(sc(/N=C/c3ccco3)c2C(N)=O)C1 ?
TsaE inh: inactive

How did N#Cc1nc(COc2ccccc2)oc1N1CCCCC1 do in these assays?
TsaE inh: inactive

What do the screens show for `COc1ccc(CN(C(=O)Cn2nnc3ccccc32)C(C(=O)NC(C)(C)C)c2ccco2)cc1` (stereo not drawn)?
PK Bst: >57; TsaE inh: inactive

What do the screens show for `CCN(CC)CCNC(=O)c1cn(C)c2ccc(S(=O)(=O)N(C)C3CCCCC3)cc2c1=O`?
TsaE inh: inactive

Results for O=c1c2ccccc2c(C=NCCCN2CCOCC2)c(O)n1Cc1ccccc1 ?
PK Bst: >57; TsaE inh: inactive

What do the screens show for `COc1ccc(N2C(=O)C3CCCN3C2c2cc(OC)c(OC)c(OC)c2)cc1` (stereo not drawn)?
TsaE inh: inactive

What do the screens show for `CC1=C(C(=O)OCC2CCCO2)C(c2ccncc2)C2=C(CC(C)(C)CC2=O)N1` (stereo not drawn)?
PK Bst: >57; TsaE inh: inactive

What do the screens show for `CCOC(=O)Nc1ccc(C(N)=O)cc1`?
PK Bst: >57; TsaE inh: inactive

Results for CC(C)=CCC/C(C)=C/CC/C(C)=C/CSc1ccccc1C(=O)O ?
TsaE inh: inactive

Results for C=CCOC(=O)CCC(=O)Nc1cc(OC)nc(OC)n1 ?
PK Bst: >57; TsaE inh: inactive

How did CCCC(=O)C1=C(O)C(C(=O)OC)C(C)(C)CC1=N (stereo not drawn) do in these assays?
TsaE inh: inactive

How did N[C@@H](CO)C(=O)NNCc1ccc(O)c(O)c1O do in these assays?
TsaE inh: inactive

How did O=c1[nH]c2cc3c(cc2cc1CN(Cc1nnnn1CC1CCCO1)C1CCCC1)OCO3 (stereo not drawn) do in these assays?
PK Bst: >57; TsaE inh: inactive

What do the screens show for `O=S(=O)(c1ccc2nc(-c3ccco3)c(-c3ccco3)nc2c1)N1CCOCC1`?
PK Bst: >57; TsaE inh: inactive

Results for CCn1c(Cc2ccccc2)nnc1SCC(=O)Nc1nnc(-c2ccccc2)s1 ?
PK Bst: >57; TsaE inh: inactive

What do the screens show for `COc1ccc(-c2[nH]nc3c2C(c2ccc(OC(=O)N4CCOCC4)cc2)C(C#N)=C(N)O3)cc1` (stereo not drawn)?
PK Bst: >57; TsaE inh: inactive

Results for CCC(C)NC(=O)CSC1=Nc2ccccc2C2=NC(CC(=O)NCc3ccccc3)C(=O)N12 (stereo not drawn) ?
PK Bst: >57; TsaE inh: inactive

Results for O=C1c2c(O)ccc([N+](=O)[O-])c2C(=O)c2c([N+](=O)[O-])ccc(O)c21 ?
TsaE inh: inactive

Results for COc1cc2oc(=O)c(Br)c(C)c2c(OC)c1OC ?
TsaE inh: inactive

How did O=C(NC1CCCCC1)NC1(C(=O)NCCCN2CCOCC2)CCCCC1 do in these assays?
PK Bst: >57; TsaE inh: inactive

Results for COc1ccccc1N1CC(O)=C(c2nc3ccccc3s2)C1=N ?
PK Bst: >57; TsaE inh: inactive

How did Cc1cc(C)nc(SCc2ccc3nonc3c2)n1 do in these assays?
TsaE inh: inactive

Results for N#Cc1c(N)n(CCCN2CCOCC2)c2nc3ccccc3nc12 ?
PK Bst: >57; TsaE inh: inactive

Results for CC1CC(=O)C2=C(C1)Nc1ccccc1N(C(=O)COc1ccccc1)C2c1ccco1 (stereo not drawn) ?
PK Bst: >57; TsaE inh: inactive

How did O=c1[nH]c(CN2CCN(Cc3ccc4c(c3)OCO4)CC2)nc2sc3c(c12)CCC3 do in these assays?
PK Bst: >57; TsaE inh: inactive

How did COc1ccc(C(=O)SC2=NCCS2)cc1OC do in these assays?
TsaE inh: inactive

How did COCc1nnc(NC(=O)CCCOc2ccccc2OC)s1 do in these assays?
PK Bst: >57; TsaE inh: inactive

What do the screens show for `COc1ccc(C2/C(=C(/O)c3ccc(F)cc3)C(=O)C(=O)N2CCCN(C)C)cc1` (stereo not drawn)?
TsaE inh: inactive

Results for Cn1c(SCC(=O)NCc2cccs2)nnc1-c1ccco1 ?
PK Bst: >57; TsaE inh: inactive

How did O=C(Nc1nc(-c2ccccc2)cs1)C1CCCO1 (stereo not drawn) do in these assays?
PK Bst: >11; TsaE inh: inactive

Results for Cc1cc(Nc2ccc3c(c2)OCCO3)n2ncnc2n1 ?
PK Bst: inactive; TsaE inh: inactive

What do the screens show for `COc1cc(C2NC(=O)NC(c3ccccc3)=C2C(C)=O)ccc1OCC(=O)O` (stereo not drawn)?
PK Bst: inactive; TsaE inh: inactive

Results for CCN1C(=O)NC(c2cccnc2)C(C(=O)OC)=C1C (stereo not drawn) ?
TsaE inh: inactive

How did O=C(c1ccco1)N1CCN(C(=O)C2c3ccccc3Oc3ccccc32)CC1 do in these assays?
PK Bst: >57; TsaE inh: inactive

What do the screens show for `CCn1cc(C(=O)OCC(=O)NCc2ccc3c(c2)OCO3)c(=O)c2ccc(C)nc21`?
PK Bst: >57; TsaE inh: inactive

What do the screens show for `COc1cccc(Nc2nc(-c3sc(N)nc3C)cs2)c1`?
PK Bst: inactive; TsaE inh: inactive

How did N[C@@H](CSCc1ccccc1)C(=O)O do in these assays?
TsaE inh: inactive

How did Cc1ccc(-c2nc3ncccc3o2)cc1NC(=O)c1cc2ccccc2o1 do in these assays?
TsaE inh: inactive

Results for Cc1nnc(SCCn2c(N3CCCCCC3)nc3c2c(=O)[nH]c(=O)n3C)s1 ?
PK Bst: >57; TsaE inh: inactive

Results for Cc1ccc(CN2C(=O)CCC2C(=O)NCCN2CCN(c3cccc(Cl)c3)CC2)cc1 (stereo not drawn) ?
PK Bst: >57; TsaE inh: inactive

How did Cc1cc(Cc2cc(C)c(N)cc2N)c(N)cc1N do in these assays?
TsaE inh: inactive

What do the screens show for `COc1ccccc1Nc1ncc(C(C)=O)c(C)n1`?
TsaE inh: inactive

What do the screens show for `CCOC(=O)c1ccc(CNS(=O)(=O)c2c(C)ccc3nsnc23)o1`?
PK Bst: >57; TsaE inh: inactive

How did CCN1CCN(C(=O)c2ccc3c(c2)N(Cc2ccc(F)cc2)C(=O)c2ccccc2S3=O)CC1 (stereo not drawn) do in these assays?
TsaE inh: inactive

Results for Cc1ccc(C(=O)CCNc2cccc(Br)c2)o1 ?
TsaE inh: inactive

How did COc1ccc(CN(CCN2CCOCC2)C(=O)c2c(F)cccc2F)cc1OC do in these assays?
PK Bst: >57; TsaE inh: inactive

Results for CCN(CC)CCCCn1c(-c2ccccc2)nc2c(N(CCOC)CCOC)nc(C)nc21 ?
TsaE inh: inactive

How did COc1ccc(C)cc1NC(=O)C1C2C=CC(C2)C1C(=O)O (stereo not drawn) do in these assays?
PK Bst: >57; TsaE inh: inactive

How did CCN1CCCC1CNC(=O)c1cn(C)c2ccc(S(=O)(=O)N3CCCCCC3)cc2c1=O (stereo not drawn) do in these assays?
PK Bst: >57; TsaE inh: inactive

How did CCCSc1nnc2nc3c(nn12)c1ccccc1n3C do in these assays?
TsaE inh: inactive

What do the screens show for `CSC1=NCCN1C(=O)c1ccco1`?
TsaE inh: inactive

Results for CC(C)n1c(SCc2cc(=O)[nH]c3ccccc23)nc2c1c(=O)n(C)c(=O)n2C ?
PK Bst: >57; TsaE inh: inactive

What do the screens show for `COc1cc(C(Nc2ccc3c(c2)OCO3)C(=O)NC2CCCCC2)cc(OC)c1OC` (stereo not drawn)?
PK Bst: >57; TsaE inh: inactive

How did Cc1ccccc1N1CCN(Cc2c(C#N)c3ccccc3n2C)CC1 do in these assays?
PK Bst: >57; TsaE inh: inactive

What do the screens show for `COC(=O)C1C(=O)NC(SC)=C(C#N)C1c1ccccc1F` (stereo not drawn)?
PK Bst: >57; TsaE inh: inactive

How did C=CCOC(=O)C1=C(C)OC(N)=C(C#N)C1c1c(C)nn(-c2ccccc2)c1Cl (stereo not drawn) do in these assays?
PK Bst: >57; TsaE inh: inactive

How did CCOC(=O)C(NC(=O)c1ccccc1)(Nc1cc(C)on1)C(F)(F)F (stereo not drawn) do in these assays?
PK Bst: >57; TsaE inh: inactive

Results for COc1ccc(C2N(c3cc(C)on3)C(=O)C3CCCN32)cc1OC (stereo not drawn) ?
PK Bst: >57; TsaE inh: inactive

Results for NC(=O)COC(=O)CNC(=O)c1ccc(Cl)cc1 ?
PK Bst: >57; TsaE inh: inactive

Results for O=C(c1ccc(CS(=O)(=O)Cc2ccc(Cl)cc2)o1)N1CCCC1 ?
PK Bst: inactive; TsaE inh: inactive

Results for CCOc1ccc(C(=O)Nc2cc(C)c3c(=O)oc4ccccc4c3n2)cc1 ?
TsaE inh: inactive

How did O=C(/C=N/O)Nc1ccc(F)cc1 do in these assays?
PK Bst: >57; TsaE inh: inactive

What do the screens show for `c1cn(C23CC4CC(CC(C4)C2)C3)cn1`?
PK Bst: >57; TsaE inh: inactive

How did CCOC(=O)/C(C#N)=C1/C=Cc2ccccc2N1CC do in these assays?
TsaE inh: inactive
